# Assay outcomes from PubChem.
# MbtI inh: MbtI salicylate synthase inhibitors, primary screen, biochemical, fluorescence intensity; AID 493033, 2011; purified MbtI enzyme, fluorescence intensity read-out; 0.89% of 100,000 active; P9WFX0; inhibition, %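 (about 17 µg/mL by stock and volumes)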;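 active means above 50% in both replicates, above 80% if mildly self-fluorescent; inactive means the rest, strongly fluorescent compounds included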;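 further: 0% = mean of negative and 100% = mean of positive controls; one replicate is shown; some compounds called inactive have numbers as strong as hits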
# Target sequence (P9WFX0 whole entry, looked up): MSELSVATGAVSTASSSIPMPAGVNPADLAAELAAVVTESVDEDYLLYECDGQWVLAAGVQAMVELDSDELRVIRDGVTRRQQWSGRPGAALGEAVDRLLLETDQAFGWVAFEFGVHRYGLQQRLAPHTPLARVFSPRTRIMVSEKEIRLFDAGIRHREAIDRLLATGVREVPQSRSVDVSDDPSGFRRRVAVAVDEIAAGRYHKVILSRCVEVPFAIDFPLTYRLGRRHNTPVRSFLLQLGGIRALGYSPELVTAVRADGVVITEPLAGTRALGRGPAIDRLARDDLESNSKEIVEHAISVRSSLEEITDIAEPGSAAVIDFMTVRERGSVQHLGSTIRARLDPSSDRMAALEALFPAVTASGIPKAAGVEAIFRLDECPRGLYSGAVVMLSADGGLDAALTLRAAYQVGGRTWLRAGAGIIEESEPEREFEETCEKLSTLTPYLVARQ
# PV pol inh: poliovirus RdRp elongation inhibitors, primary screen, biochemical, fluorescence polarization, total intensity; poliovirus polymerase elongation; hits give low values; % elongation, % (compound at 16.7 µg/mL); AID 588519, 2011; 0.66% of 150,000 active; Genome polyprotein (Poliovirus type 1 (strain Mahoney)), P03300; in the data active means % elongation below about 90%; further: some results filed as inactive read as strong as hits
# Target sequence (P03300 1749-2209 limits assumed): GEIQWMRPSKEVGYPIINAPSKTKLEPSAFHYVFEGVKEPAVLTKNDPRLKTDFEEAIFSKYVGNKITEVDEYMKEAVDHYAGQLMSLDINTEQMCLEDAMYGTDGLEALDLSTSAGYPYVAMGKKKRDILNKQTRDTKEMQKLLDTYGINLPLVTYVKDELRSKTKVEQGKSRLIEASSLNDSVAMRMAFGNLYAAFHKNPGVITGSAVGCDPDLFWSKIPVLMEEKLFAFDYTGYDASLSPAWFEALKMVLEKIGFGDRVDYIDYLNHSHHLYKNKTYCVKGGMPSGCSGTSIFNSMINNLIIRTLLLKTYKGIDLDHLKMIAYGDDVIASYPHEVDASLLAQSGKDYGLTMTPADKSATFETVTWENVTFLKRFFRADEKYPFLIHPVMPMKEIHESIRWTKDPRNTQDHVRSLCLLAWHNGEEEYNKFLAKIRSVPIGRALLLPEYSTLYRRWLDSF
# MenB inh: M. tuberculosis MenB inhibitors, primary screen, biochemical, absorbance; 1,4-dihydroxy-2-naphthoyl-CoA synthase (Mycobacterium tuberculosis (strain ATCC 25618 / …; MenB enzyme assay, absorbance read-out; some hits fall short of the stated cut; inhibition, %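 (about 12 µg/mL by stock and volumes)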; 0.43% of 100,000 active; AID 540299, 2011;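 active means mean of two replicates above 30%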;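 further: 0% = no compound and 100% = wells with inactive enzyme; the first replicate is given; strong numbers were not always called active; inactives centre near -10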
# PV pol inh intensity: also measured in PV pol inh; calls as there; % elongation; measured here: total intensity read-out; formula for this scale not given here;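 total fluorescence in place of polarization; lower means less elongation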
# An asterisk follows results filed as active; . = not tested or not shown.
SMILES,MbtI inh,PV pol inh,MenB inh,others
CC(=O)Nc1cc(Br)c2c(c1)OCCO2,-1.6,.,.,
COC(=O)c1ccc(COc2ccc3c(c2)CCC3)o1,-10.5,.,.,
NC(=O)c1cccc2c1-c1ccccc1/C2=N/O,0.0,.,.,
Cc1ccc(CC(C(=O)Nc2ccc(F)cc2)C(C)C(=O)O)cc1 (stereo not given),-8.6,.,.,
Cc1nn(Cc2ccc(C(=O)NC(C)(C)C)o2)c(C)c1Br,3.4,.,.,
Cc1cc(C)c(-n2nnnc2SCC(=O)NCCc2ccccc2)c(C)c1,-4.5,.,.,
CNC(=O)CC1Sc2ccccc2NC1=O (stereo not given),-9.0,.,.,
CC(C)NC(=O)C1(O)c2ccccc2NC(=O)N1c1ccc(Cl)c(Cl)c1 (stereo not given),-0.6,.,.,
O=C1C=C(NC2CC2)C2(CCCCC2)O1,-1.6,.,.,
CCN(CC)c1cc(C)c2cc(NC(=O)/C(C)=C\c3ccccc3)ccc2n1,-9.1,.,.,
CCC(CO)n1cnnc1-c1ccncc1 (stereo not given),-14.8,.,.,
CC(=O)OC1C2CCCC1C(N1CCCC1)CC2 (stereo not given),-1.4,.,.,
CC1=CC(C)C2C(=O)N(CCCN(C)C)C(=O)C2C1 (stereo not given),-8.6,.,.,
COc1cc(C)c(S(N)(=O)=O)c(S(N)(=O)=O)c1,-0.8,.,.,
CC(C)N(CC(N)=O)c1ncnc2sc(-c3ccccc3)cc12,118.0,.,.,
C=CCc1cccc(CNc2ccc(Cl)cc2)c1O,4.7,.,.,
c1ccc2c(NC3CCCCC3)nc(-c3ccncc3)nc2c1,-18.0,.,.,
O=c1n(-c2ccccc2)c(=O)n2n1CCC2,-9.9,.,.,
COC(=O)c1cc(/C=C/c2ccccc2)on1,4.9,.,.,
O=C(O)C1CCN(S(=O)(=O)N2CCOCC2)CC1,-22.7,.,.,
O=c1c2cc(NC(=S)NC3CCCCCC3)ccc2nc2n1CCCCC2,-6.7,.,.,
Cc1ccc(C)n1-c1ccc2c(c1)COC2=O,-7.9,.,.,
CCCc1nc2oc3c(-c4ccccc4)c(C(=O)O)c(C)nc3c2c2c1COC(C)(C)C2,-2.4,.,.,
COc1ccc(N(C)C(=O)c2cn(CC(C)C)c(=O)c3cc(OC)c(OC)cc23)cc1,2.8,.,.,
Cc1c(NC(=O)CCN2C(=S)NC(C)(C)CC2C)c(=O)n(-c2ccccc2)n1C (stereo not given),7.1,.,.,
Fc1ccc(-c2cc(-c3ccccc3)nc3ncnn23)cc1,53.0,.,.,
O=C(NC1CCCCC1)C1C2C=CC3(CN(Cc4cccs4)C(=O)C13)O2 (stereo not given),-11.5,.,.,
CSCCC1COC(c2cccs2)=N1 (stereo not given),-0.6,.,.,
COc1ccc(NC(=O)CSc2nc3ccccc3o2)cc1,-14.4,.,.,
O=C(O)CCS(=O)(=O)Cc1cccc(Cl)c1,-2.3,.,.,
O=C1CCCC2=C1C(c1ccco1)C1=C(N2)c2ccccc2C1=O (stereo not given),-4.8,.,.,
O=C(NC(Cc1ccccc1)C(=O)N1CCC2(CC1)OCCO2)C1CCCCC1 (stereo not given),-19.1,.,.,
O=C(O)Cn1c(=O)oc2cc(S(=O)(=O)NC3CCCCC3)ccc21,-9.3,.,.,
CCOc1ccccc1C1CC(=O)Nc2c1ccc1ccccc21 (stereo not given),-7.6,.,.,
CN1C(=O)C(C)(C)N(Cc2ccccc2)c2ccccc21,0.1,.,.,
c1ccc(-n2nnnc2SCCSc2nnnn2-c2ccccc2)cc1,-7.5,.,.,
COC1(OC)N=C(N)C2(C#N)C(c3ccccc3)C12C#N (stereo not given),-14.4,.,.,
COc1ccc(CN2CCC(N3CCN(CCO)CC3)CC2)cc1OC,-7.1,.,.,
S=c1[nH]nc(-c2ccccc2Cl)o1,15.6,.,.,
CN(C)c1cc(-c2ccccc2)nc(N)n1,-7.2,.,.,
O/N=C1\CC(c2ccccc2)OC12CCCCC2 (stereo not given),-8.0,.,.,
S=C(Nc1ccccc1Cl)N(CCN1CCCCCC1)Cc1cccs1,-6.5,.,.,
COc1ccc(C2C(C(=O)NC3CCCCCC3)CCC(=O)N2c2ccc(OC)cc2)cc1 (stereo not given),-5.2,.,.,
CC(=O)N1CC(=O)Nc2ccc(Cl)cc2C1c1ccccc1 (stereo not given),-1.6,.,.,
CC(C)c1ccc(NC(=O)C(c2ccccc2)N(C)C(=O)Cc2cccs2)cc1 (stereo not given),4.0,.,.,
CC(C)N1CCC(c2ccccc2)C1 (stereo not given),-17.6,.,.,
N#Cc1c(N)oc(-c2ccco2)c1-c1ccco1,-59.6,.,.,
Nc1ccc(Sc2nc3ccccc3s2)cc1,-4.7,.,.,
COc1ccc(/C=C/C2=CCN(Cc3ccc(OC)cc3)CC2)cc1,95.0,.,.,
Cc1cc(Cc2ccccc2)c(C)cn1,-1.8,.,.,
# Additional entries
SMILES,MbtI inh,PV pol inh,MenB inh,others
S=c1[nH]nc(-c2ccncc2)o1,96.7*,.,.,
Cc1cc2ccccc2c(=O)n1CC(=O)Nc1ccc(C(C)C)cc1,32.8,.,.,
CC1(C)CC(O)(CNCc2ccc3c(c2)OCO3)CCO1 (stereo not given),4.5,.,.,
COc1ccccc1C(=O)CC#N,12.6,.,.,
O=C(CN1C(=O)c2ccccc2C1=O)N1CCCCCC1,-5.2,.,.,
Cc1cc2ccccc2c(=O)n1CC(=O)N1CCCCC1,16.3,.,.,
CCOC(=O)c1ccc(S(N)(=O)=O)o1,-1.9,.,.,
O=C(NC1CC1)c1cncc(Br)c1,-11.6,.,.,
CCN1CCN(CCCN)CC1,-10.1,.,.,
CCOC(=O)c1nnc(Cc2ccc(Cl)cc2)o1,7.0,.,.,
O=S(=O)(Cc1ccccc1Cl)Nc1nc2cc(Cl)ccc2o1,-4.4,.,.,
COCC(=O)NC1(c2nnnn2CCOC(=O)Nc2ccc(Cl)cc2)CCCCC1,-8.8,.,.,
CC1CCCCN1C(=O)c1ccc(N)cc1 (stereo not given),-4.2,.,.,
CN1C2CCC1CC(OC(=O)c1ccccc1)C2 (stereo not given),-14.3,.,.,
Cc1ccccc1CSc1ncc(C#N)c(N)n1,-5.8,.,.,
C/C(=N\O)c1cn(C)c2ccccc12,-3.5,.,.,
Cc1ccccc1NC(=O)c1cnc(Nc2nc3ccccc3s2)nc1C,0.5,.,.,
Cc1cccc(NC(=O)c2ccn(C(=O)Oc3ccccc3)n2)n1,10.9,.,.,
C=CCNC(=O)COc1ccc(CCC)cc1,-6.2,.,.,
CC1CCCC(NC(=O)c2ccccc2C(=O)O)C1C (stereo not given),-15.5,.,.,

# Ordered by number of heavy atoms (rising): part of the list above.
SMILES,MbtI inh,PV pol inh,MenB inh,others
CCN1CCN(CCCN)CC1,-10.1,.,.,
COc1ccccc1C(=O)CC#N,12.6,.,.,
C/C(=N\O)c1cn(C)c2ccccc12,-3.5,.,.,
Cc1cc(Cc2ccccc2)c(C)cn1,-1.8,.,.,
CC1CCCCN1C(=O)c1ccc(N)cc1 (stereo not given),-4.2,.,.,
C=CCNC(=O)COc1ccc(CCC)cc1,-6.2,.,.,
Cc1ccccc1CSc1ncc(C#N)c(N)n1,-5.8,.,.,
CC1CCCC(NC(=O)c2ccccc2C(=O)O)C1C (stereo not given),-15.5,.,.,
O=C(CN1C(=O)c2ccccc2C1=O)N1CCCCCC1,-5.2,.,.,
O=S(=O)(Cc1ccccc1Cl)Nc1nc2cc(Cl)ccc2o1,-4.4,.,.,
Cc1cccc(NC(=O)c2ccn(C(=O)Oc3ccccc3)n2)n1,10.9,.,.,
Cc1cc2ccccc2c(=O)n1CC(=O)Nc1ccc(C(C)C)cc1,32.8,.,.,
Cc1ccccc1NC(=O)c1cnc(Nc2nc3ccccc3s2)nc1C,0.5,.,.,
COCC(=O)NC1(c2nnnn2CCOC(=O)Nc2ccc(Cl)cc2)CCCCC1,-8.8,.,.,

# (list continues)
SMILES,MbtI inh,PV pol inh,MenB inh,others
COc1ccccc1CNC(=O)Cn1cnc2ccc(S(=O)(=O)N3CCC(C)CC3)cc2c1=O,-4.4,.,.,
CC(=O)NC(C)Cc1c[nH]c2ccccc12 (stereo not given),-0.4,.,.,
COc1ccc(C(=O)OC(COc2ccccc2)Cn2ccnc2)cc1 (stereo not given),-14.5,.,.,
COCCN1C(=O)c2ccccc2C(C(=O)NCc2ccccc2OC)C1c1ccc(F)cc1 (stereo not given),-5.7,.,.,
CCOC(=O)c1cc(S(=O)(=O)N2CCN(C(=O)OCC)CC2)cn1C,-9.8,.,.,
Cc1cc(=O)[nH]c(SCC(=O)N2CCCc3ccccc32)n1,8.8,.,.,
N=C(N)SCC1COc2ccccc2O1 (stereo not given),5.8,.,.,
Nc1cc(-c2nn[nH]n2)ccc1F,-7.5,.,.,
CCCCN(CC)S(=O)(=O)c1ccc(C(=O)Nc2nnc(-c3ccc(Cl)s3)o2)cc1,-10.4,.,.,
CC(=O)Nc1ccc(Cl)c(-c2nc3cc(Cl)ccc3o2)c1,-5.0,.,.,

# Reprinted from the part before: 4 compounds, followed by the next part.
SMILES,MbtI inh,PV pol inh,MenB inh,others
N=C(N)SCC1COc2ccccc2O1 (stereo not given),5.8,.,.,
Nc1cc(-c2nn[nH]n2)ccc1F,-7.5,.,.,
CCCCN(CC)S(=O)(=O)c1ccc(C(=O)Nc2nnc(-c3ccc(Cl)s3)o2)cc1,-10.4,.,.,
CC(=O)Nc1ccc(Cl)c(-c2nc3cc(Cl)ccc3o2)c1,-5.0,.,.,
Cc1cc(C)n(C(=O)C2CC=CCC2C(=O)O)n1 (stereo not given),-7.4,.,.,
Cc1ccnc(NS(=O)(=O)c2ccccc2)c1,2.0,.,.,
O=C(Nc1ccc(-c2nnc(-c3ccco3)o2)cc1)C(c1ccccc1)c1ccccc1,5.2,.,.,
CC(=O)N1CC2C(C3CCN2CC3)N(C(C)=O)c2ccccc21 (stereo not given),-13.7,.,.,
COC(=O)c1ccc2[nH]c3c(c2c1)CCCC3,70.6,.,.,
COC(=O)C1c2ccccc2-c2ccccc21,-4.9,.,.,
COC(=O)CSc1sc(=O)sc1SC,35.8,.,.,
Cc1cccc(C)c1OCCNC(=O)c1ccc2ccccc2n1,-6.2,.,.,
CC[N+](CC)=c1scc(-c2ccc(Cl)cc2)s1,.,.,0.0,
CCc1nc(NCc2ccccc2)c(C#N)c2c1COC(C)(C)C2,.,.,-2.0,
CN1CCN(c2nc3ccccc3nc2C(C#N)S(=O)(=O)c2ccccc2)CC1 (stereo not given),.,.,-193.7,
CC(C)OC(=O)C(C)n1cnc2sc(-c3ccccc3)cc2c1=O (stereo not given),.,.,-10.7,
CCOC(=O)C1=C(C)NC(=O)NC1c1c(Cl)nc2c(C)cccn2c1=O (stereo not given),.,.,-5.4,
COC(=O)C1=CN(CCc2ccccc2)C=C(C(=O)OC)C1C(=O)OC,.,.,-56.7,
O=C(Nc1ccc(Cl)cc1Cl)C1CC(=O)N(C2CCCCC2)C1 (stereo not given),.,.,-13.1,
COCCNC(=O)c1cc2c(Cl)nc3ccc(C)cc3c2s1,.,99.0,.,PV pol inh intensity=100.0
COc1ccc(CNC(=O)C2CCCN(S(=O)(=O)c3ccc4c(c3)CCCN4C(C)=O)C2)cc1 (stereo not given),.,105.0,.,PV pol inh intensity=111.0
Cc1ccc(CNS(=O)(=O)c2cc(Br)cc3c2N(C(=O)C2CC2)CC3)cc1,.,106.0,.,PV pol inh intensity=108.0
COc1ccc(-c2nc(CCNC(=O)c3ccc(Br)o3)cs2)cc1,.,103.0,.,PV pol inh intensity=102.0
CCOc1ccc(Nc2ncnc3onc(-c4ccc(Cl)cc4)c23)cc1,.,106.0,.,PV pol inh intensity=109.0
CCCn1ccc2c(OCC(=O)NCc3ccccc3Cl)cccc2c1=O,.,110.0,.,PV pol inh intensity=103.0
CCCc1nc2nc(C)c(NS(=O)(=O)c3ccc(C)c(C)c3)c(=O)n2[nH]1,.,102.0,.,PV pol inh intensity=108.0
Cc1c(CNC2CCCCCC2)c(C(=O)O)c(C)n1Cc1ccc(F)cc1,.,103.0,.,PV pol inh intensity=108.0
CCOc1ccccc1CNCc1cccn1-c1nnc(N2CCN(c3ccccc3)CC2)s1,.,109.0,.,PV pol inh intensity=109.0
Cc1ccc(-n2c(/C=C/c3ccc(Br)s3)nc3ccccc3c2=O)cc1C,.,106.0,.,PV pol inh intensity=101.0
Cc1ccc(CNC(=O)CCc2c(C)nc3c(c(C)nn3-c3ccccc3)c2C)cc1,.,101.0,.,PV pol inh intensity=104.0
CCC(=O)N1CCc2cc(S(=O)(=O)NC(CC(C)C)C(=O)Nc3ccc(CC)cc3)ccc21 (stereo not given),.,102.0,.,PV pol inh intensity=103.0
COc1cccc(-c2nc(CS(=O)(=O)CC(=O)NCCCN3CCN(C)CC3)c(C)o2)c1,.,107.0,.,PV pol inh intensity=107.0

# These rows are one share of the data. The share of hits here may be higher or lower than overall.
